Screening data: PubChem, National Center for Advancing Translational Sciences (NCATS)
miR-21 FLuc – raises the signal of a miR-21 reporter; 340,000 tested, under 10 active; HeLa miR-21 FLuc reporter, luciferase, 48 h; Potency, µM (top dose mostly 38.3 µM), without a hit: at the highest dose reporter change, positive = more light; active = well fitted rising curve with a large enough effect; inconclusive = small, poorly fitted or top-dose-only effect; inactive = no such curve, though single readings can be large or run the other way;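 also: % of control where 0% means no effect; miR-21 action dims this reporter so a rising signal means less miR-21 action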
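Compounds were titrated across several concentrations (up to approximately 40 uM) and incubated 48 hours with HeLa miR-21-FLuc reporter cells (miR-21 target sequence downstream of FLuc, endogenous miR-21). Readout was firefly luciferase luminescence after lytic detection reagent.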
Rango complex inh – inhibitors of Rango-importin beta complex formation; Q14974; Rango CFP/YFP FRET sensor + importin beta, 45 min; Potency, µM (top dose mostly 92.2 µM), inactives show at the top dose inhibition of complex formation; 340,000 tested, 0.031% active; active = rising FRET ratio curve, often small or poorly fitted; inconclusive = mostly compound fluorescence or quenching in the first reads; inactive = flat curves in all reads;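 also: potency is read from the fitted curve at half-maximal effect; 0% = DMSO wells and 100% = buffer wells lacking importin beta; nearly all actives have a fitted effect of over 15% in size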
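Inhibition scored from the CFP 486 nm/YFP 530 nm FRET ratio 45 min after adding 0.125 microM importin beta to 50 nM Rango biosensor preincubated 5 min with compound (room temperature, PBS with DTT, Tween-20, BSA). No-importin wells as positive control.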
Rango dissoc inh – inhibition of RanGTP-driven Rango-importin beta dissociation. O95149+P62826. Biochemical FRET Rango-importin beta, RanGTP-induced dissociation. Potency, µM (doses to about 46.1 µM), for inactives: top-dose activity change, negative = inhibition. 340,000 tested, 0.071% active. AID 540253; active means falling FRET ratio curve, often poorly fitted, with flat reads before Ran was added; inconclusive means other falling curves, or compound fluorescence or quenching; inactive means flat or rising ratio curve;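 also: potency is read from the fitted curve at half-maximal effect; % of control where 0% means no effect; nearly all actives have a fitted effect of over 45% in size; -100% = wells without RanGTP and RCC1; the record marks most hits as doubtful in a second field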
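Recombinant Rango FRET biosensor (EYFP–snurportin 1 IBB–cerulean CFP10) at 0.1 uM premixed with 0.25 uM importin beta in PBS, 1 mM DTT, 0.02% Tween-20, 0.1% BSA. Compound added 5 min; RanGTP-RCC1 (0.6 uM Ran, 2 mM GTP, 0.2 uM RCC1) then triggers release, read at 45 min.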
GLA inh pH 4.5 – inhibitors of human alpha-galactosidase A at pH 4.5. P06280. purified enzyme, 4-MU-alpha-Gal fluorescence, pH 4.5. activity change, negative = inhibition, % at 105 µM. 230,000 tested, under 10 active. AID 1467; inconclusive = small, poorly fitted or top-dose-only inhibition, or a rising curve; inactive = flat fitted curve, though single readings scatter; no compound was filed as active;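 also: 0% = full activity with enzyme and -100% = basal without enzyme; dose as in the result columns while the protocol names 77 µM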
Target sequence (P06280 whole entry, looked up): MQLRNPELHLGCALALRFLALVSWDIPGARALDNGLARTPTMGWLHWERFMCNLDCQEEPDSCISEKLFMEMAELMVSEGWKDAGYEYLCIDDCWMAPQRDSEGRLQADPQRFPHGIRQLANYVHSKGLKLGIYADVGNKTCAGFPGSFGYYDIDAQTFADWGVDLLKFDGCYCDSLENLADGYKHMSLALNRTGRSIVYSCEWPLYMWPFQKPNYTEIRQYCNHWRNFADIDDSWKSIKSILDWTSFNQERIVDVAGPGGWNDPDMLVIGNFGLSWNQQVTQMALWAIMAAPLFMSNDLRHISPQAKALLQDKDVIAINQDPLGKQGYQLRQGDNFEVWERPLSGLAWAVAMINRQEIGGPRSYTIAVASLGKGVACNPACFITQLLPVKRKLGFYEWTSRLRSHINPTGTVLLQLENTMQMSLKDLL
The depositor's hits bear a star; u = inconclusive; x = not tested or not shown; & = joins results of further samples. A portion of the library, so the mix of outcomes need not match the whole.

Values run as follows: GLA inh pH 4.5, miR-21 FLuc, Rango dissoc inh, Rango complex inh
- Cc1cc(NC(=O)COc2cccc3cccnc23)no1
  2, -33%, x, x
- Cc1cc(C)c2cccc(NC(=S)NC(=O)c3ccccc3)c2n1
  -27, -4%, -25%, -1.3%
- O=S(=O)(c1ccc2c(c1)CCCN2)N1CCCC2CCCCC21 (stereo unspecified)
  -16, 9%, 5%, 5.6%
- COc1ccc(-c2ccc(-c3cc(=O)oc4cc(OC)c(OC)c(OC)c34)cc2)cc1OC
  -7, x, 0%, 3.7%
- COC(=O)c1c(NC(=O)COC(=O)c2ccc(C)s2)sc2c1CCCCC2
  -4, -3%, 5%, 0.8%
- CCC(c1nc2ccccc2c(=O)n1-c1cccnc1)N1C(=O)c2ccccc2C1=O (stereo unspecified)
  -2, -4%, -16%, 13%
- CCC(CC)NC(=O)c1nn(Cc2ccccc2)c(=O)c2ccccc12
  x, 9%, 4%, -0.1%
- CC1(C)CC(=O)c2cnc(NCc3ccco3)nc2C1
  0, -16%, 4%, -2.8%
- CSCCC(NC(=O)c1ccccc1)C(=O)NCCCSc1ccccc1 (stereo unspecified)
  x, x, -18%, 0.1%
- CCCCNc1c(-c2ccc(OC)c(SC3CCCCC3)c2)nc2ccc(C)cn12
  x, x, u, u
- O=C(NCC(c1cccnc1)N1CCN(c2ccccc2)CC1)c1ccc2c(c1)OCO2 (stereo unspecified)
  -11, -3%, -7%, -1.9%
- CCN1CCN(c2ccc(S(=O)(=O)N3CCOCC3)cc2NC(=O)CCOc2ccccc2)CC1
  x, -7%, -2%, 0.1%
- CCOC(=O)N1CCC(NC(=O)c2cc(-c3ccc(OC)cc3)nc3ccccc23)CC1
  x, -7%, 26%, 0.8%
- Cn1c(=O)[nH]c(=O)c2c1nc(Br)n2CCOc1ccccc1
  -1, 8%, -5%, 1.2%
- Fc1ccc(-n2c(-c3ccc4ccccc4n3)n[nH]c2=S)cc1
  2, 0%, 7%, 3.3%
- CC(CC(=O)Nc1cc(S(=O)(=O)N2CCOCC2)ccc1OCC(F)(F)F)c1ccccc1 (stereo unspecified)
  x, x, 0%, 8.2%
- O=C(COc1ccccc1)NCCSCc1ccco1
  6, -18%, 6%, -2.0%
- Cc1cc(O)cc2c1O[C@@](C)(CCC[C@@H](C)CCC[C@@H](C)CCCC(C)C)CC2
  x, x, 1%, -2.0%
- CCc1cccc2cc3c(N)c(C(=O)Nc4ccc(S(=O)(=O)N5CCCC5)cc4)sc3nc12
  4, -7%, u, u
- O=C(COC(=O)C12CC3CC(CC(C3)C1)C2)Nc1ccc(OC(F)F)cc1
  -4, 3%, 1%, -0.7%
- COc1ccc(OC)c(C2=CC(=O)C[C@H](c3ccc4c(c3)OCO4)C2)c1
  x, x, -11%, 1.5%
- Cn1ccc(-c2ccccc2)n1
  3, -1%, 23%, -1.4%
- CN(C(=O)CSc1nnc(-c2cccs2)n1N)c1ccccc1
  x, x, 5%, 1.9%
- CCOc1ccc(CCNC(=O)CN2C(=O)CCSc3ccccc32)cc1
  x, -2%, -16%, 5.8%
- O=c1[nH]c(CSc2nnc(Nc3ccccc3)s2)nc2ccccc12
  -2, -2%, 10%, -0.4%
- COc1ccccc1NC(=O)c1ccc2c(c1)N(CC(=O)NC(C)(C)C)C(=O)C(C)(C)O2
  x, 0%, -1%, -2.2%
- CC1CCCCC1NC(=O)CN1CCC(O)(c2ccc3c(c2)OCO3)CC1 (stereo unspecified)
  7, -3%, -6%, -1.5%
- COc1ccccc1N(CC(=O)NCCSc1ccccn1)S(=O)(=O)c1ccccc1
  x, 6%, 2%, 2.5%
- COc1ccccc1C1=CC(=O)C[C@H](c2ccc(Cl)cc2)C1
  x, x, 0%, 1.3%
- Cc1nc2c3ccccc3[nH]c(=O)n2n1
  -3, 0%, 15%, 2.4%

The list goes on; it opens with the six that closed the last part.
Values run as follows: GLA inh pH 4.5, miR-21 FLuc, Rango dissoc inh, Rango complex inh
- O=c1[nH]c(CSc2nnc(Nc3ccccc3)s2)nc2ccccc12
  -2, -2%, 10%, -0.4%
- COc1ccccc1NC(=O)c1ccc2c(c1)N(CC(=O)NC(C)(C)C)C(=O)C(C)(C)O2
  x, 0%, -1%, -2.2%
- CC1CCCCC1NC(=O)CN1CCC(O)(c2ccc3c(c2)OCO3)CC1 (stereo unspecified)
  7, -3%, -6%, -1.5%
- COc1ccccc1N(CC(=O)NCCSc1ccccn1)S(=O)(=O)c1ccccc1
  x, 6%, 2%, 2.5%
- COc1ccccc1C1=CC(=O)C[C@H](c2ccc(Cl)cc2)C1
  x, x, 0%, 1.3%
- Cc1nc2c3ccccc3[nH]c(=O)n2n1
  -3, 0%, 15%, 2.4%
- COc1ccc(N2CCN(C(=S)Nc3cc(C)ccc3C)CC2)cc1
  -1, 0%, 3%, 0.6%
- Cc1ccc(NC(=O)C2CCN(C(=O)[C@@H]3Cc4ccccc4CN3)CC2)cc1
  x, -38%, 1%, -0.8%
- Cc1ccc(NC(=O)CSc2n[nH]c(-c3cccnc3)n2)cc1Cl
  x, -8%, 0%, -2.6%
- CCN(CC(=O)Nc1ccc(NC(C)=O)cc1)C(=O)CSc1nnc(-c2ccco2)n1CC
  x, x, -8%, 7.1%
- CN(C(=O)CSc1nc(-c2ccccc2)cs1)C1CCS(=O)(=O)C1 (stereo unspecified)
  -5, -15%, 4%, -1.4%
- Cc1ccc2cc(C#N)c(N3CCCN(S(=O)(=O)c4ccc(F)cc4)CC3)nc2c1
  -3, 3%, u, u
- c1ccc(Cc2nnc3sc(-c4ccc5c(c4)OCO5)nn23)cc1
  x, x, -10%, 2.2%
- CC1(C)OC(C)(C)/C(=C\c2ccccc2[N+](=O)[O-])C1=O
  x, 0%, -12%, -1.7%
- CCc1cc2c(-c3ccccc3)cc(=O)oc2cc1OC(=O)c1cccs1
  3, 0%, 5.2µM*, u
- CC(=O)c1ccc(S(=O)(=O)N2CCN(CC(=O)Nc3ccc(Cl)c([N+](=O)[O-])c3)CC2)cc1
  x, x, -4%, 5.1%
- CCC(C)c1ccccc1NC(=O)COC(=O)C1=COCCO1 (stereo unspecified)
  2, -5%, 0%, -1.9%
- Cc1cc(Cl)ccc1OCCCC(=O)N1CCN(S(=O)(=O)c2ccccc2)CC1
  x, x, 0%, 4.0%
- Cc1cc(SCC(=O)c2ccccc2)nc(=O)[nH]1
  x, -62%, -4%, -1.9%
- CCOC(=O)C1=NNC(C(=O)OCC)C1c1ccccc1 (stereo unspecified)
  x, x, u, -1.5%
- CC[C@H](C)[C@H](NC(=O)OCc1ccccc1)C(=O)Nc1ccc(NC(C)=O)cc1
  5, -6%, -10%, 0.1%
- O=S(=O)(Nc1cccc(-n2cnnn2)c1)c1ccccc1
  x, -1%, 11%, 2.7%
- COc1ccc(O)c(C(=O)CC(=O)c2ccccc2C)c1
  2, -10%, -5%, 1.7%
- OC1(c2ccc(Cl)c(Cl)c2)C[n+]2ccccc2N1Cc1ccccc1 (stereo unspecified)
  3, u, -4%, 1.8%
- CCCn1c(N)c(C(=O)CSc2nncs2)c(=O)[nH]c1=O
  x, x, 21%, 0.2%
- CC(=O)Nc1ccc(S(=O)(=O)NC(C(=O)O)C2=CCC=CC2)cc1 (stereo unspecified)
  -2, -1%, 1%, -3.0%
- CCOC(=O)COc1ccc(S(=O)(=O)N2CCN(c3ccc(F)cc3)CC2)cc1
  4, 0%, -6%, -2.1%
- Cn1nc(-c2ccc(C(=O)NC3CCCCC3)cc2)c2ccccc2c1=O
  x, 4%, -8%, 3.8%
- COC(=O)CN(c1ccc(OCc2ccccc2)cc1)S(C)(=O)=O
  1, -1%, 9%, 5.6%
- O=C(C1CC(c2ccc(F)cc2)=NO1)N1CCCCC1 (stereo unspecified)
  2, -52%, -7%, -2.1%
- O=C(Nc1ccc(SC(F)F)cc1)C1=CC=CN2CCS(=O)(=O)N=C12
  x, x, -1%, -0.7%
- O=C(Nc1ccccc1F)c1cc(S(=O)(=O)N2CCOCC2)cs1
  x, 0%, 10%, -0.3%
- COc1ccc(N(C(C)C(=O)NC2CCCCCC2)S(C)(=O)=O)cc1 (stereo unspecified)
  2, -5%, -19%, 0.0%
- C=CCN(c1ccccc1)S(=O)(=O)c1cc(C(=O)NC2=NCCS2)ccc1Cl
  0, 1%, 2%, -0.4%
- C[C@H]1COC(=O)[C@@H](Cc2ccc(F)cc2)C/C=C\C[C@H](CC(=O)N(CCO)Cc2ccccc2)C(=O)N1
  x, x, -10%, -4.6%
- CCC(C(=O)OCC(=O)Nc1cc(Cl)cc(Cl)c1)c1ccccc1 (stereo unspecified)
  -4, -5%, 7%, -0.7%

(listing goes on)
Values run as follows: GLA inh pH 4.5, miR-21 FLuc, Rango dissoc inh, Rango complex inh
- O=C(/C=C/c1ccccc1)CCN1CCOCC1
  x, x, 1%, -2.7%
- O=C(O)c1cccc(Cn2c(Cl)c(/C=N/NC(=O)c3cc4ccccc4cc3O)sc2=O)c1
  -12, 0%, 9%, u
- CC1=NN(c2ccccc2)C(=O)C1/C=C1\NC(=S)NC1=O (stereo unspecified)
  -5, 8%, u, u
- CCOc1ccc(C(=O)NCc2ccccc2)cc1Br
  -17, -8%, 2%, -5.8%
- Cc1nc2ccccc2c(=O)n1/N=C/c1c(O)ccc2oc3c(c12)CCCC3
  -2, 2%, 0%, 1.2%
- CCN(CCNC(=O)C1CCN(Cc2nc(-c3ccc(Cl)cc3)oc2C)CC1)c1ccccc1
  -7, 29%, -4%, -0.6%
- COC(=O)c1cnc(N2CCCN(S(=O)(=O)c3ccc(C(F)(F)F)cc3)CC2)nc1C(F)(F)F
  -3, 1%, -2%, -3.0%
- CCCCS(=O)(=O)/C=C\C1C2C=CC(C2)C1S(=O)(=O)CCCC (stereo unspecified)
  10, -8%, 1%, -0.5%
- Cc1nc(-c2ccc(S(=O)(=O)Nc3ccc(Br)cc3F)cc2)co1
  x, 3%, -4%, 1.9%
- Clc1ccc(-c2n[nH]c3c2Cc2ccccc2-3)cc1Cl
  1, -6%, x, x
- O=C(O)Cn1cnc2sc3c(c2c1=O)CCCC3
  1, 0%, -2%, 1.1%
- S=C(Nc1ccc(Cl)cc1)c1sc(N2CCCCC2)nc1N1CCOCC1
  -2, -8%, 15%, 6.3%
- O=C(NCC1CCCO1)C(=O)c1c[nH]c2ccccc12 (stereo unspecified)
  3, -60%, 0%, -4.7%
- CC1(c2ccc3ccccc3c2)NC(=O)N(CC(=O)NCc2cccs2)C1=O (stereo unspecified)
  0, -1%, -2%, -1.7%
- CC1CCN(CC(C)OC(=O)c2ccco2)CC1 (stereo unspecified)
  x, 6%, 1%, 1.3%
- COc1ccc(N2CCN(C(=O)CSc3nnnn3C3CC3)CC2)cc1
  x, x, -2%, -3.5%
- CSC(=S)N/N=C/c1ccc(N(C)C)cc1
  -6, -35%, u, u
- CCOC(=O)c1ccccc1NC(=O)COC(=O)c1c(CC)noc1C
  x, x, -2%, 4.6%
- Cc1ccc2sc(N3CCN(CCNC(=O)c4ccco4)CC3)nc2c1C
  x, x, -14%, 2.8%
- CCOc1ccccc1N1CCN(C(=O)c2ccc3[nH]c4c(c3c2)CCCC4)CC1
  -6, -1%, -4%, 4.7%
- O=C(CNC(=S)N(CCCN1CCOCC1)Cc1cccs1)NCc1ccccc1Cl
  x, 0%, -6%, 5.8%
- Cc1ccc(S(=O)(=O)N(C)CCCC(=O)n2nc(C)cc2C)cc1
  -1, -6%, 16%, -0.9%
- O=C(O)c1ccc(NC(=O)c2cc3ccccc3o2)cc1
  x, -26%&-23%, 39%, -1.0%
- Cc1nccn1CC(O)COc1ccc([N+](=O)[O-])cc1 (stereo unspecified)
  x, 0%, 4%, 4.0%

Not a retest: two of the compounds above.
Values run as follows: GLA inh pH 4.5, miR-21 FLuc, Rango dissoc inh, Rango complex inh
- O=C(O)c1ccc(NC(=O)c2cc3ccccc3o2)cc1
  x, -26%&-23%, 39%, -1.0%
- Cc1nccn1CC(O)COc1ccc([N+](=O)[O-])cc1 (stereo unspecified)
  x, 0%, 4%, 4.0%
